Screening results (PubChem BioAssay)
ClpP mod = qHTS Assay for Activators of ClpP; ATP-dependent Clp protease proteolytic subunit (Bacillus subtilis (strain 168)), P80244; purified B. subtilis ClpP, FRET peptide cleavage, 20 min; Potency, µM (top dose mostly 57.5 µM), for inactives: at the top dose activity change, negative = active; actives 1.9% (n = 340,000); AID 651965, 2013; active = well fitted falling curve with a large enough effect; inconclusive = small, poorly fitted or top-dose-only effect; inactive = no such curve, though single readings can be large or run the other way; note: potency is the fitted concentration of half-maximal effect; the source files actives as falling curves though it sought activators and does not explain the sign; nearly all actives have a fitted effect of over 65% in size; many hits overshoot -100%
Target sequence (P80244 whole entry, looked up): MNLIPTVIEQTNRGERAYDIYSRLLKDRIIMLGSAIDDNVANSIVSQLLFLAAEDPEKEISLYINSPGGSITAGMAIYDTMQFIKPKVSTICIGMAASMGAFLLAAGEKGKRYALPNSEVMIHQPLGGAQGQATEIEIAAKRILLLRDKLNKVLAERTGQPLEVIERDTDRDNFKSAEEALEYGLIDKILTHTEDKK
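ClpP 10 microg/mL final, pH 8 Tris/KCl buffer with BSA, glycerol, Tween-20; compound pinned in; FRET-FV substrate; RT 20 min; Ex320/Em430; ΔFRET vs ADEP 5.8 microM, DMSO, no enzyme.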
Sfp PPTase inh = blocks B. subtilis Sfp PPTase activity | Q9F4F7 | Biochemical Sfp PPTase activity, qHTS | Potency, µM, for inactives: max response, negative = inhibition, most hits filed as inhibitors | actives 3.5% (n = 310,000) | AID 1490; active = well fitted inhibition curve with a large enough effect; inconclusive = small, poorly fitted or top-dose-only effect, or another doubt; inactive = no such curve, though single readings can be large or run the other way;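 note: the enzyme is Sfp with the accession as filed and its product quenches rhodamine fluorescence; potency is the fitted concentration of half-maximal effect; 0% = enzyme reaction without inhibitor and -100% = no enzyme wells; top concentration of the series not given in the record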
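After 15 min at room temperature with compound, 15 nM Sfp received 5 uM rhodamine-CoA plus 12.5 uM BHQ-2-ybbR (50 mM Hepes pH 7.6, 10 mM MgCl2). Rate came from the fluorescence difference over 30 min, ex 525/em 598 nm.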
PINK1 modulator = changes PINK1 expression | PINK1 immunofluorescence, high-content cytometry, 24 h | Potency, µM (series often up to 76.6 µM), for inactives: at the highest dose activation (PINK1 increase), usual class: activators | actives 0.2% (n = 410,000); active = well fitted activation curve with a large enough effect; inconclusive = small, poorly fitted or top-dose-only effect; inactive = flat fitted curve, though single readings scatter; cell line not stated here;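 note: potency is the fitted concentration of half-maximal effect; % of control where 0% means no effect; nearly all actives have a fitted effect of over 65% in size; a mitochondrial uncoupler was the plate control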
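Stable cell line, 250 cells/well, 12 h attachment; compounds pinned at 5 concentrations, 24 h; CCCP control. Fixed with nuclear dye, primary antibodies 12 h at 10 degrees C, secondary plus cell stain; laser-scanning cytometer read.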
gsp ag = gsp mutant agonism; gsp mutant cells, cAMP HTRF, 30 min; control for the full effect not named in the record; actives 0.13% (n = 340,000); AID 624287; Potency, µM (highest dose often 76.9 µM), inactives show at the top dose activation (cAMP increase), usual class: activators; active = well fitted activation curve with a large enough effect; inconclusive = small, poorly fitted or top-dose-only effect, or another doubt; inactive = no such curve, though single readings can be large or run the other way; cell line not stated here;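 note: phosphodiesterase inhibitor Ro 20-1724 added with compounds to block cAMP breakdown; potency is the fitted concentration of half-maximal effect; nearly all actives have a fitted effect of over 60% in size; about a fifth of the inactives were tested at one dose only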
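Cells in DMEM/10% FBS with G418 were pretreated with compounds in DMSO plus […] (300 uM stock) for 30 min at 37C. cAMP was measured by HTRF (cAMP-d2 plus anti-cAMP antibody-K) after 30 min at room temperature.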
D2 ag = human D2 receptor agonism in beta-arrestin assay | P14416 | DiscoveRx PathHunter D2 beta-arrestin, luminescence, 90 min; 100% = 57 uM dopamine signal | activation, % (no concentration beside the values) | actives 0.084% (n = 360,000) | AID 624465; in the data active = activation above about 40%; inconclusive = about 15% to 40%; inactive = below about 15%; note: compound concentration not given in the record; the text of the record calls up to 30% inactive
Target sequence (P14416 whole entry, looked up): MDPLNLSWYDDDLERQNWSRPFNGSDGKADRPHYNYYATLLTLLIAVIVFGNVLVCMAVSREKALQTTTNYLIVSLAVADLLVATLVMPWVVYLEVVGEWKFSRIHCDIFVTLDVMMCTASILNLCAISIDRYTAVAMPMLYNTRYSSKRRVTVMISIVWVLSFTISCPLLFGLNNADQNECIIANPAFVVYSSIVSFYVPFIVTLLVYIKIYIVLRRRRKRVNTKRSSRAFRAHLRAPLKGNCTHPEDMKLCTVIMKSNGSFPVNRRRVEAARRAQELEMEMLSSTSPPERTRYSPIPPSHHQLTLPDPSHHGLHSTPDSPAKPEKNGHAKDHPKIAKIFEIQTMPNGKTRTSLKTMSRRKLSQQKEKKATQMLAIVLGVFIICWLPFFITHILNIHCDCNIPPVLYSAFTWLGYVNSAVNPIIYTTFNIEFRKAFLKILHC
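DiscoveRx PathHunter D2 beta-arrestin cells (2,100/well) attached overnight, then compound-stimulated 90 min at 37 C in HBSS/10 mM HEPES/0.1% Tween-20 buffer; beta-galactosidase complementation read by luminescence after 1 h at ambient temperature. Dopamine 57 uM final (EC100) as control.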
Menin MLL FP FL = inhibitors of human menin-MLL interaction, wild-type MLL peptide; Fluorescence polarization, fluorescein-MLL peptide displacement from menin; FP activity change, % at 61.4 µM; 290,000 tested, under 10 active; inconclusive = falling polarisation curve, or a change in total fluorescence; inactive = total fluorescence flat and polarisation flat or rising; no compound was filed as active; the % refers to the polarisation; negative = inhibition;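 note: % of control where 0% means no effect; inhibitors lower the polarisation; unlabelled MLL peptide was the positive control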
gsp antag = antagonizes gsp, the McCune-Albright syndrome mutation; actives 0.4% (n = 340,000); AID 624288; gsp-mutant cells, cAMP HTRF, 30 min; control for the full effect not named in the record; Potency, µM (titrated, usually from 76.9 µM), for the others: top-dose activity change, negative = inhibition, most hits filed as inhibitors; active = falling curve of any shape with a large fitted effect; inconclusive = falling curve, mostly with a smaller effect; inactive = flat or rising curve; cell line not stated here;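 note: intracellular cAMP measured with PDE inhibitor Ro 20-1724 present during compound exposure; potency is the fitted concentration of half-maximal effect; % is set by controls: 0 for no effect and ±100 for the full control effect; nearly all actives have a fitted effect of over 65% in size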
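Cells, 2000/well, grown 16–24 h in DMEM 10% FBS with 0.5 mg/ml G418, then compounds plus […] (300 uM addition stock), 30 min at 37C. cAMP read by HTRF (cAMP-d2 and anti-cAMP antibody-K in lysis buffer) after 30 min RT.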
An asterisk follows results filed as active; u = inconclusive; x = not tested or not shown; & = joins results of further samples; [ ] = dose if it differs, or a comment.

SMILES	ClpP mod	Sfp PPTase inh	PINK1 modulator	gsp ag	D2 ag	Menin MLL FP FL	gsp antag
O=S(=O)(Cc1ccc(Cl)cc1Cl)c1ccc(Cl)cc1	x	x	2.9%	0%	-2.1	x	16%
COc1cc(C(=O)Nc2cc(C(F)(F)F)ccc2N2CCOCC2)ccc1O	0.7%	15%	0.1%	-10%	-0.4	1.7	8%
COc1ccc(S(=O)(=O)N2CCC(C(=O)NCc3cccnc3)CC2)cc1C	x	14%	-1.3%	-6%[15.4 µM]	-1.7	-1.3	3%
Cn1c(CO)cnc1SCc1ccc(F)cc1	x	4%	-2.8%	u	-3.5	4.7	6%
COc1ccc(C(=O)Nc2cccc(C)n2)cc1S(=O)(=O)N1CCCc2ccccc21	x	x	2.7%	0%[15.4 µM]	-3.1	x	u
O=C(Nc1cccnc1)c1ccc(Cl)c(S(=O)(=O)N2CCCC2)c1	0.1%	0%	2.2%	19%	7.4	-0.7	-4%
O=C1Nc2ccccc2Cc2ccccc21	-7.1%	x	-0.3%	12%	-9.9	x	x
COc1ccc2nc(NC(C)=O)sc2c1	0.7%	9%	0.5%	10%	-3.6	4.7	2%
CN(C)S(=O)(=O)c1ccc(NC(=O)c2cccnc2)cc1	-1.3%	8%	-1.2%	3%	-10	1.2	20%
CCN1C(=O)[C@H]2[C@@H](c3ccc(C)cc3)N3C(=O)N(c4ccc(C)cc4)C(=O)[C@@]3(Cc3ccccc3)[C@H]2C1=O	-1.6%	15%	1.5%	-10%	-1.9	-3.7	0%
O/N=C/c1ccccc1OCc1ccc(Cl)cc1	-2.8%	-1%	1.7%	7%	-1.5	-0.1	u
O=C(c1cc(N2CCOCC2)c(F)cc1[N+](=O)[O-])N1CCOCC1	u	17%	0.6%	-5%[15.4 µM]	-0.1	1.3	6%
Cc1ccccc1N=C1Nc2ccccc2CS1	-1.1%	-6%	-1.0%	-33%[inhibitor]	-5.7	3.5	-7%
CCOc1cc(/C=C2/SC(=O)N(CC(=O)N3CCc4ccccc4C3)C2=O)ccc1OCC(=O)O	-3.3%	16%	-1.4%	37%	-1.3	1.4	-9%
CC1CCN(C(=O)c2nc[nH]c2C(=O)OCCNC(=O)OC(C)(C)C)CC1	-4.1%	x	3.2%	-7%	-1.8	x	7%
CC(C)(C)c1ccc(C(=O)NCC(=O)NNC(=O)c2ccccc2O)cc1	u	x	-0.2%	-59%[inhibitor]	-3.3	x	-9%
CN(C(=O)CSc1nnc(-c2c[nH]c3ccccc23)o1)C1CCS(=O)(=O)C1 (configuration not stated)	x	10%	1.4%	3%	3.1	0.9	4%
CS(=O)(=O)N1CCN(c2nc(-c3ccc(F)cc3)cs2)CC1	-2.6%	-5%	0.3%	-4%	1.9	0.3	-19%
CC(C)Oc1cccc(C(=O)O)c1	-1.7%	-10%	15%[38.3 µM]	-19%	-2.5	1.2	1%
O=C(Cn1nc(-c2ccccc2F)ccc1=O)Nc1ccc(S(=O)(=O)N2CCCCCC2)cc1	-5.3%	2%	-3.3%	u	-0.4	1.1	-5%
Cc1ccc(NC(=O)C2CCCN2C(=O)NC2CCCCC2)c(C)c1 (configuration not stated)	-0.4%	19%	-2.2%	-27%	0.7	7.3	17%
CCCC/C=C1\CCc2c([nH]c3ccccc23)C1=O	x	10%	3.2%	u	-0.5	3.6	2%
Cn1c(=O)c(-c2ccc(Cl)cc2)nc2cncnc21	x	14%	-1.0%	x	x	0.1	x
CC(C)CC(=O)Nc1ccc(C(=O)NN2C(=O)c3ccccc3C2=O)cc1	32µM*	-2%	-2.4%	14%	-0.2	0.7	0%
Brc1ccc(/C=C/C=N/Nc2nc3ccccc3s2)cc1	-6.8%	7%	4.9%[38.3 µM]	4%	1.9	1.4	14%
COCCn1c(-c2cccc(Br)c2)nc2c(c(=O)c3ccccc3n2C)c1=O	-1.6%	-15%	1.4%	u	-4.0	0.7	-3%
Cc1[nH]c2ccccc2c1C(=O)C(=O)N1CCCc2ccccc21	-0.5%	-3%	3.0%	-41%[inhibitor]	-0.4	4.5	20%
COC(=O)c1c(NC(=O)CSc2nnc(C)c(=O)[nH]2)sc(C)c1C	x	-4%	1.5%	-8%	-1.5	3.8	-14%
CC(C)CC(=O)Nc1ccccc1-c1nnn(CC(=O)N2CCOCC2)n1	0.5%	5%	0.2%[38.3 µM]	2%	-3.0	-4.3	-6%
O=c1c(-c2cccs2)nc2cnc(Oc3ccccc3)nc2n1Cc1cccs1	x	6%	-0.7%	x	x	10	x
COc1ccc(Nc2nc(N)nc(CSC(=S)N3CCCCC3)n2)cc1	-1.8%	7%	0.1%	19%	12	0.8	9%
NC(=O)c1c(NC(NC(=O)c2ccco2)(C(F)(F)F)C(F)(F)F)sc2c1CCCC2	-7.9%	22µM*	-1.2%	3%	3.6	-3.8	-7%
Cc1noc(C)c1COC(=O)c1ccccc1Sc1ccccc1C#N	-2.5%	-12%	2.7%	-27%	-1.8	-0.6	-41%
NC(=O)CN1CCN(C(=O)Nc2ccccc2)CC1	-4.0%	16%	1.6%	-71%[inhibitor]	-3.6	-1.6	-5%
Cc1ccc(-c2nnc(Oc3ccc(NC(=O)c4ccccc4)cc3)c3ccccc23)cc1	-1.0%	13%	11%	1%	-8.3	1.6	-15%
O=C1c2ccccc2S(=O)(=O)c2cc(N3CCN(c4ccccc4)CC3)ccc21	-0.4%	x	-0.7%	17%	-1.9	x	-5%
Cc1c(O)c(=O)n(-c2ccccc2)n1C	0.1%	u	1.2%	x	-3.9	-1.8[24.8 µM]	1%
CCOC(=O)/C=C1\CN(Cc2cc(OC)c(OC)c(OC)c2)S(=O)(=O)c2ccccc21	-2.2%&0.4%	8%	2.4%	x	-1.3	4.2	-5%
Cc1ccc(NC(=O)Cn2c(O)c(N=NC(=O)c3ccncc3)c3ccccc32)cc1	x	3%	7.4%	-33%[inhibitor]	-0.7	1.5	0%
O=C1CCCC(NCCCCCCNC2=C([N+](=O)[O-])C(=O)CCC2)=C1[N+](=O)[O-]	-1.2%	3%	0.5%	u	2.2	-0.4	12%
Cc1ccccc1-n1c(=O)cc(N2CCc3ccccc3C2)[nH]c1=O	-2.4%	-16%	u	-28%	-2.2	-5.9	-16%
CC(=O)c1ccc2c(c1)N(C)c1ccccc1S2	-7.1%	-27%	1.7%	25%	4.8	1.7	5%
CCOC(=O)c1nn(-c2ccc(C)cc2)c(=O)cc1OCC(=O)N1CCN(c2ccccc2)CC1	-3.5%	x	2.3%	7%	2.0	x	-9%
COc1ccc(NC(=O)NC2CC3CCCC(C2)N3Cc2ccccc2)cc1 (configuration not stated)	-0.4%	23%	-0.9%	0%	-2.5	7.2	-5%
CC(C)Cn1c(N)c(C(=O)COC(=O)c2ccccc2C(=O)c2ccccc2)c(=O)n(C)c1=O	-2.5%	x	-1.3%	-1%	-0.5	x	-28%
O=C1c2cccc3cccc(c23)C(=O)N1CCCSc1ncn[nH]1	-18%	2%	0.0%	-34%[inhibitor]	4.0	-1.8	-14%
CSCc1cc(N(C)C)nc(SCc2ccc(Cl)cc2Cl)n1	-5.1%	-12%	u	-2%	-2.8	8.3	-2%
Cc1cc(NC(=O)CN2C(=O)NC(CCc3ccccc3)C2=O)no1 (configuration not stated)	-1.3%	3%	-1.0%	u	7.5	1.4	9%
CCN=C1SC(CC(=O)Nc2ccc(C)cc2)C(=O)N1CC (configuration not stated)	0.5%	-4%	1.6%	-27%	-3.6	-1.4	-11%
CC1Cc2cc(/C(O)=C3/C(=O)C(=O)N(CCN4CCOCC4)C3c3ccc(N(C)C)cc3)ccc2O1 (configuration not stated)	-2.2%	3%	-0.9%	-52%[inhibitor]	-1.1	7.3	-16%
CN(C(=O)c1cccnc1)c1nnc(-c2cnccn2)s1	-1.4%	14%	0.8%	-14%	0.0	1.0	-1%
CC(=O)Nc1ccc(NC(=O)c2cc[n+]([O-])cc2)cc1	x	6%	-1.4%	10%	-4.4	3.2	4%
CN(CC(=O)Nc1ccccc1C(F)(F)F)C(=O)C1CC1	-1.5%	x	-0.2%	-8%	0.5	x	17%
N/C(=N\OC(=O)c1cccc2ccccc12)c1ccc(Br)cc1	-21%	u	6.3%	u	u	5.0	8%
Cc1ccsc1-c1ccnc(-n2cccc2)n1	-8.8%	-19%	2.1%	-43%[inhibitor]	0.4	17	-1%
O=C(NNc1ccc(F)cc1F)c1c(F)cccc1Cl	x	8%	0.9%	3%	-0.4	0.4	4%
O=C(Nc1ccc(S(=O)(=O)N2CCCc3ccccc32)cc1)C1CCCO1 (configuration not stated)	-0.3%	2%	-3.4%[38.3 µM]	u	-1.0	1.4	-2%
CCN(Cc1nc2cc(Cl)ccc2c(=O)[nH]1)C(=O)COc1ccccc1Cc1ccccc1	-0.9%	x	9.7%	-49%[inhibitor]	-2.8	x	-23%
Cc1ccc(S(=O)(=O)N2CCN(C(=O)CSc3ccc(F)cc3)CC2)cc1	x	5%	2.1%	-6%	0.8	-1.4	-4%
CCN=C1SC(C(=O)Nc2cc(Cl)cc(Cl)c2)CC(=O)N1CC (configuration not stated)	0.1%	11%	6.4%	-14%[15.4 µM]	-3.1	-3.2	19%
(next part)
SMILES	ClpP mod	Sfp PPTase inh	PINK1 modulator	gsp ag	D2 ag	Menin MLL FP FL	gsp antag
COC(=O)c1ccc(CSc2nnc(N)s2)o1	-2.9%	-5%	2.0%	-9%[15.4 µM]	2.1	u	4%
Cc1ccc(NC(=O)c2ncn(CCCNCc3ccc4c(c3)OCO4)n2)cc1C	-1.4%	x	-1.2%	x	-3.2	x	-2%
Cc1cc(C)nc(NC(=NCCc2c[nH]c3ccccc23)NC(=O)Nc2cccc([N+](=O)[O-])c2)n1	2.6%	16%	13%	6%	-1.8	-1.5	-8%
COc1cc2cc(CN(CCc3cccc(C)c3)C(=S)NCCCN3CCOCC3)c(=O)[nH]c2cc1OC	x	u	-1.4%	-27%	-2.8	-7.7	-5%
O=[N+]([O-])c1ccc(-n2nncc2-c2ccccc2)cc1	0.3%	12%	-0.8%	4%	-2.5	0.1	-3%
CCc1nnc(NC(=O)CSc2nc(C3CCCCC3)nc3ccccc23)s1	-0.6%	23%	x	u	0.6	2.6	2%
O=C(O)c1cc(N=Nc2c(O)[nH]c3ccc([N+](=O)[O-])cc23)ccc1Cl	0.2%	-10%	0.6%	15%	-5.2	u	2%

Random draw from the library; any-hit rate near 5.1%.
